From PubChem BioAssay
HPGD inh – qHTS Assay for Inhibitors of HPGD (15-Hydroxyprostaglandin Dehydrogenase) | 15-hydroxyprostaglandin dehydrogenase [NAD(+)] (Homo sapiens), P15428 | hit rate 4.3% among 150,000 | purified HPGD, NADH fluorescence kinetic, PGE2 substrate | Potency, µM, for the others: at the top dose activity change, negative = inhibition, usual class: inhibitors; active = well fitted inhibition curve with a large enough effect (not every such curve was filed as active); inconclusive = small, poorly fitted or top-dose-only effect, or another doubt; inactive = no such curve, though single readings can be large or run the other way;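 further: top concentration of the series not given in the record; plate controls included wells without enzyme; inactives centre near -10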
Target sequence (P15428 whole entry, looked up): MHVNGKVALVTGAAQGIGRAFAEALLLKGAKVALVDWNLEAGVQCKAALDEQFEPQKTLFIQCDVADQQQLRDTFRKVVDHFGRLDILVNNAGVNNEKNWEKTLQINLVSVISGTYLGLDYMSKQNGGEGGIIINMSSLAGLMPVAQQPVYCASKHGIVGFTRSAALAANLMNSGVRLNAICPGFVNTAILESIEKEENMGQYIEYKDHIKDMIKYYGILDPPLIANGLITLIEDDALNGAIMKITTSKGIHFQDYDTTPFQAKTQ
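20 nM HPGD preincubated 15 min at room temperature with compound in 50 mM Tris-HCl pH 8, 0.01% Tween 20. Started with 1 mM NAD+ and 30 uM prostaglandin E2; NADH fluorescence (360/450 nm) read 5 times over 30-s intervals, last minus first.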
Active calls of the source: *; u = inconclusive; & = joins results of further samples. On the % scale 0 is the no-effect control and ±100 the full control effect; potency means the concentration at half of the fitted maximal effect. Not all compounds are listed. The share of hits here may be higher or lower than overall.

cpd	SMILES	HPGD inh
1	O=C(O)c1ccc2c(c1)C(=O)/C(=C/c1ccccc1)C2=O	12.6µM*
2	COc1ccc(NC(=O)N2CCC3(CC2)CCN(C(=O)c2cnccn2)CC3)cc1	-5.5%
3	Cc1ccc(C(=O)CNc2ccccc2C)cc1	-9.9%
4	Cc1ccccc1C(=O)NC(=S)NCC(=O)c1ccccc1	u
5	NC/C=C\C(=O)O	-9.0%&-0.5%
6	COC(=O)CSc1nc(C)cc(Oc2ccccc2)n1	-10.0%
7	Clc1ccc(-c2noc(CSc3nnc(-c4ccncc4)n3-c3ccccc3)n2)cc1	-4.8%
8	NS(=O)(=O)c1ccc(NS(=O)(=O)c2ccc(NC(=S)Nc3ccccc3)cc2)cc1	-11.7%
9	O=c1c2cc(N3CCOCC3)ccc2[nH]c(=S)n1Cc1ccccn1	u
10	COc1ccc(-c2c[n+]3c4n2CCCCC4=C(c2ccccc2)C3)cc1	u
11	CCOC(=O)C(NC(=O)Nc1ccccc1)(OCC)C(F)(F)F (stereo not drawn)	5.4%
12	Nc1ncc(-c2ccccc2)n1CC1CCCO1 (stereo not drawn)	1.8%
13	CCN(CC)S(=O)(=O)c1ccc(C(=O)OC2CCCCC2CN(C)C)cc1 (stereo not drawn)	-2.9%
14	COC(=O)CC1Nc2ccccc2SC1=O (stereo not drawn)	-2.8%
15	CCCCCC(=O)N/N=C(\C)c1ccc(Cl)cc1	-17.3%
16	CNc1ccc(O)cc1	12.6µM*
17	COc1cccc(-c2cc(C(=O)Nn3cnnc3)c3ccccc3n2)c1	-8.4%
18	Cn1c2ccccc2c2c(C(=O)NCc3ccco3)cn(C3CCCCC3)c(=O)c21	u
19	O=C(O)C1CCN(S(=O)(=O)c2cccnc2)CC1	1.7%
20	O=S(=O)(Nc1cccnc1)c1ccc(Cl)cc1	-1.6%
21	CC1(Br)C2CCCC1C2S(=O)(=O)c1ccccc1 (stereo not drawn)	-8.3%
22	Cc1nc(C)c(C(=O)NNC(=O)c2ccc(Br)cc2)s1	-10.9%
23	Cc1occc1C(=O)NNC(=O)NC12CC3CC(CC(C3)C1)C2	-8.1%
24	CCN(CC)S(=O)(=O)c1ccc(OC(C)C)c(NC(=O)c2c3c(nc4ccccc24)CCN(Cc2ccccc2)C3)c1	-8.0%
25	CC1(C)C(=O)Nc2ccccc2N1C(=O)COC(=O)c1ccc(Cl)c(S(=O)(=O)NCc2ccccc2)c1	-8.3%

Further results
cpd	SMILES	HPGD inh
26	CC1(OC(=O)c2cnc3ccccc3n2)C(=O)C=C2C=C(c3ccc(C#N)cc3)OC=C2C1=O (stereo not drawn)	-10.1%&-3.8%
27	Cc1nn(CC(=O)NCc2ccc(-n3cccn3)cc2)c(C)c1[N+](=O)[O-]	-9.7%
28	COc1ccc(-c2nnn(CC(=O)N(CC(=O)NCCC(C)C)Cc3cccs3)n2)cc1OC	-13.9%
29	COC(=O)C1C2C=CC3(CN(CC4CCCO4)C(=O)C13)O2 (stereo not drawn)	-4.3%
30	O=C1OCCC1Sc1nc2ccccc2[nH]1 (stereo not drawn)	-3.9%
31	Cc1c(NC(=O)C(C)OC(=O)CC2Sc3ccccc3NC2=O)c(=O)n(-c2ccccc2)n1C (stereo not drawn)	-18.1%
32	C#CCn1c(=NC(=O)c2cccs2)sc2cccc(OC)c21	u
33	O=S(=O)(NCc1cc(-c2ccc(Cl)cc2)no1)c1ccccc1	-3.3%
34	O=C(CC1Oc2ccccc2NC1=O)NCc1ccc(Cl)cc1 (stereo not drawn)	-15.0%
35	COC(=O)Cn1cc(C(=O)OC)c2ccccc21	-1.8%
36	Cc1nn(Cc2ccc(C(=O)Nc3nc4c(C)cccc4s3)o2)c(C)c1Br	u
37	CCSc1nnc(NC(=O)C2Cc3ccccc3CN2S(=O)(=O)CC)s1 (stereo not drawn)	-12.2%
38	O=C(COc1ccc2ccccc2c1Br)NC(=S)Nc1cccc(CO)c1	-4.1%
39	CCC(C)c1ccccc1OCCOCCN1CCCC1 (stereo not drawn)	4.4%
40	Fc1cccc2sc(Nc3nnc(-c4ccccc4)o3)nc12	u
41	O=C(O)c1cc2ccc3ccccc3c2[nH]1	u
42	CC(=O)Nc1nc(CC(C)C)cc(-c2ccco2)c1C#N	u
43	Nc1nc(NCCCN2CCOCC2)nc(Nc2ccccc2)c1[N+](=O)[O-]	-13.0%
44	Cc1ccc(CC(=O)Nc2nc3ccccc3s2)cc1	-16.7%
45	CC1=C(C(=O)Nc2cccc(F)c2)C(c2ccsc2)C2=C(CC(C)(C)CC2=O)N1 (stereo not drawn)	u
46	COc1ccccc1-n1nnnc1S(=O)(=O)Cc1ccc(Cl)cc1	-11.9%
47	Cc1ccc(C)c(S(=O)(=O)NC(CC(C)C)C(=O)O)c1 (stereo not drawn)	-3.0%
48	Cc1ccc(CC(CC(=O)O)C(=O)NCc2ccccc2)cc1 (stereo not drawn)	-4.1%
49	Cn1ccnc1SCC(=O)N(C1CCCCC1)C1CCCCC1	-6.0%
50	O=C(Nc1c(Cl)cc(Cl)cc1C(=O)NCc1cccnc1)c1ccc(Cl)cc1Cl	-6.2%

Later entries.
cpd	SMILES	HPGD inh
51	S=C(NCCN1CCOCC1)Nc1ccc(Cl)cc1	0.2%
52	Brc1ccc(OCc2nnc3n2CCC3)cc1	-7.2%
53	Nc1nc2c3ccccc3nc(C3CC3)n2n1	-10.4%
54	O=c1nc2n(c3c4c(sc13)CCC4)CCC2	-19.8%
55	C[C@H]1Cc2c(COc3ccccc3)nc3c(c2CO1)CN(C(=O)C1CCCCC1)CC3	-5.1%
56	CCOc1ccc(OCc2ccc(C(=O)NCc3cccnc3)o2)cc1	-19.1%
57	CC(C)(C)NC(=O)c1sccc1C(=O)O	u
58	COc1ccc(NC(=O)CNc2cccc(C#N)c2)cc1Cl	-20.9%
59	O=C(c1cc(C(F)(F)F)cc(C(F)(F)F)c1)N1CCC[C@@]2(CCN(Cc3ccncc3)C2)C1	-6.9%
60	CC1CCN(C(=O)C2(NC(=O)Nc3cccc(F)c3)CCCCC2)CC1	-0.9%
61	O=C(/C=C/Nc1ccccc1F)c1cccs1	-11.4%
62	O=c1c(O)c(-c2cccc(O)c2)oc2ccccc12	28.2µM*
63	CON1C(=O)C(=O)N(OC)C2CCCCCC21 (stereo not drawn)	0.9%
64	O=C(Cn1cnc2sc(-c3ccccc3)cc2c1=O)NCc1ccco1	15.8µM*
65	CCOc1cc(C)c(Cl)cc1S(=O)(=O)n1nnc2ccccc21	-9.9%
66	CC(C)[C@H](CO)Nc1nc(Nc2cccc(Cl)c2)c2ncn(C(C)C)c2n1	-19.4%
67	O=C(COc1ccc(Cl)cc1Cl)NC(=O)N1CCCCC1	15.8µM*
68	Cc1ccc(NC(=O)CCC(=O)NNC(=O)c2cccc([N+](=O)[O-])c2)cc1C	0.8%
69	O=C(c1cnn2c1NC(c1ccc(Br)cc1)CC2C(F)(F)F)N1CCN2CCCC2C1 (stereo not drawn)	-9.2%
70	CCn1c(SCc2ccc(C(=O)Nc3nccs3)cc2)nnc1-c1ccc(N)cc1	-22.1%
71	CCOC(=O)N1CCN(C(=O)c2cccc(NC(=O)c3ccco3)c2)CC1	-1.8%
72	CCOC(=O)c1c(C)[nH]c(C)c1C(=O)CSc1nc2ccccc2c(=O)n1-c1ccccc1C	-7.7%
73	O=C(Nc1nn(Cc2ccccc2F)cc1Br)c1cccs1	-12.7%
74	Cn1c(=O)n(Cc2ccc(F)cc2)c(=O)c2c1nc1n2CCCN1Cc1ccccc1	-2.5%
75	COc1ccc(NC(=O)c2cc(-c3cc(C)ccc3O)n[nH]2)cc1Cl	3.16µM*

The listing continues.
cpd	SMILES	HPGD inh
76	CC(=O)NC1C(OCc2ccccc2)OC(CO)C(OC(C)=O)C1OC(C)=O (stereo not drawn)	-3.7%
77	COc1ccc(CN2C=C3C(=O)C(C)(OC(=O)C4CCCC4)C(=O)C=C3C=C2c2ccsc2)cc1 (stereo not drawn)	0.9%
78	O=C(CCN1C(=O)C2CC=C(Cl)CC2C1=O)NCc1ccccc1 (stereo not drawn)	-2.0%
79	CCCc1n[nH]c2c1/C(=N\O)CCC2	-11.8%
80	O=C(Nc1ccccc1)N1CCCN(Cc2ccccc2F)C1	25.1µM*
81	COc1ccccc1/C=N/NC(=O)CCSc1ccccc1	-13.9%
82	COc1ccc(C(=O)C2CN(c3ccccc3)CC2c2ccc(Cl)cc2)cc1 (stereo not drawn)	-15.8%
83	CCOC(=O)C(NC(=O)c1ccc(OC)cc1)(OCC1(CC)COC1)C(F)(F)F (stereo not drawn)	-8.0%
84	COc1ccccc1N(CC(=O)NC1CCCC1)C(=O)CCC(=O)Nc1cc(C)on1	-2.7%
85	COc1ccccc1OCC(=O)n1cc(C(=O)c2cc(Cl)cc(Cl)c2O)cn1	17.8µM*
86	Cc1scc(C(=O)NNC(=S)NC(C)c2ccccc2)c1C (stereo not drawn)	-11.5%
87	N/C(=N\OC(=O)c1ccc(Cl)cc1)c1nonc1N	-5.5%
88	O=C(CCN1CCc2ccccc2C1)Nc1ccccc1F	-10.6%
89	CCOc1ccccc1CNn1nnnc1N	2.6%
90	O=C(N/N=C1/C(=O)c2cccc3cccc1c23)c1ccc(Cl)cc1	28.2µM*
91	CCSc1nc2ccccc2n1CCC(=O)O	-5.3%
92	CCC(C)(C)C(=O)Nc1cc([N+](=O)[O-])ccc1F	-16.6%
93	CC(C)C(OC(=O)C1=Cc2ccccc2OC1)C(=O)NC1CCCC1 (stereo not drawn)	-10.5%
94	Cc1ccc(-c2cc(-c3ccccc3)c(C#N)c(Br)n2)cc1	u
95	Cc1cn(C(=O)C(C)N2C(=O)c3ccccc3C2=O)c(C)n1 (stereo not drawn)	-7.3%
96	CN(C)S(=O)(=O)c1ccc2oc(SCC(=O)NCC(F)(F)F)nc2c1	-14.4%
97	CCCC(=O)Nc1ccc(-c2ccc(NC(=O)CCC)cc2)cc1	-17.3%
98	Cc1c(NS(=O)(=O)c2cccc(C(=O)NCc3ccncc3)c2)c(=O)n(-c2ccccc2)n1C	-8.2%
99	Cc1csc2ncc(C(=O)NCc3ccco3)c(=O)n12	u
100	N#Cc1ccc(/C=C/C(=O)c2ccco2)cc1	-17.9%

Fetched one by one from the entries so far:
cpd	SMILES	HPGD inh
27	Cc1nn(CC(=O)NCc2ccc(-n3cccn3)cc2)c(C)c1[N+](=O)[O-]	-9.7%
56	CCOc1ccc(OCc2ccc(C(=O)NCc3cccnc3)o2)cc1	-19.1%

The listing picks up, starting 6 compounds before the break.
cpd	SMILES	HPGD inh
95	Cc1cn(C(=O)C(C)N2C(=O)c3ccccc3C2=O)c(C)n1 (stereo not drawn)	-7.3%
96	CN(C)S(=O)(=O)c1ccc2oc(SCC(=O)NCC(F)(F)F)nc2c1	-14.4%
97	CCCC(=O)Nc1ccc(-c2ccc(NC(=O)CCC)cc2)cc1	-17.3%
98	Cc1c(NS(=O)(=O)c2cccc(C(=O)NCc3ccncc3)c2)c(=O)n(-c2ccccc2)n1C	-8.2%
99	Cc1csc2ncc(C(=O)NCc3ccco3)c(=O)n12	u
100	N#Cc1ccc(/C=C/C(=O)c2ccco2)cc1	-17.9%
101	Cc1ccc2c(c1)N(C(=O)NC1CCCCC1)C(C)(C)CC2C (stereo not drawn)	-12.4%
102	COc1cc(/C=N/NC(=O)c2ccoc2C)cc(OC)c1O	u
103	CCOC(=O)N1CCN(C(=O)C(C)(C)Oc2ccc(Cl)cc2)CC1	-5.6%
104	COc1ccc(NC(=O)C2CCN(S(=O)(=O)c3ccc(OC)c(OC)c3)CC2)cc1	-2.5%
105	Cc1cc(NCCCN2CCOCC2)n2ncc(-c3ccccc3)c2n1	u
106	NC1=NC(=Nc2ccc(Br)cc2)c2ccccc21	-11.0%
107	O=C(NCc1ccncc1)C12CC3CC(CC(C3)C1)C2	-17.9%
108	C=CCOC(=O)C1=C(C)NC(=O)NC1C1CC=CCC1 (stereo not drawn)	-2.5%
109	CC(=O)c1cn(CC(=O)Nc2ccc(C)cc2C)c2ccccc12	-14.6%
110	Cc1cc(C)n(C(=O)CCNC(=O)c2ccccc2Cl)n1	15.8µM*
111	Cc1cccc(-c2noc(CN(C(=O)c3ccc(Br)o3)C(C)C)n2)c1	-22.8%
112	COc1ccc(-c2csc(N3CCN(C(=O)c4ccco4)CC3)n2)cc1	-16.4%
113	CCCC(=O)Nc1ccc(Nc2ccccc2)cc1	15.8µM*
114	COc1ccccc1N(CC(=O)Nc1ccccc1C)S(C)(=O)=O	1.1%
115	CCCC(CCC)C(=O)Nc1cccc(C(=O)O)c1	-8.9%
116	Fc1ccccc1N1CCN(CC2CC3C=CC2C3)CC1 (stereo not drawn)	-5.1%
117	O=C(NCCCN1CCCCC1)C1(S(=O)(=O)c2ccc(Cl)cc2)CC1	-8.2%
118	COCCNC(=O)C1CC(=O)N(C2CCCCC2)C1 (stereo not drawn)	-2.8%
119	Cn1c(-c2ccc3c(c2)OCO3)cc(=O)c2ccccc21	u
120	Cc1cc(C)n(-c2ccc(C(=O)Nc3nnc(C)s3)cc2)n1	-3.8%
121	O=c1cc(NCc2ccc3c(c2)OCO3)[nH]c(=O)n1-c1ccc(Cl)cc1	-7.8%
122	COc1ccc(OC)c(N(CC(=O)N2CCN(c3cc(Cl)ccc3C)CC2)S(C)(=O)=O)c1	-10.2%
123	O=C1CC(c2ccco2)Cc2nc(Nc3ccc(F)cc3)ncc21 (stereo not drawn)	-18.5%
124	O=C(CCc1ccccc1)NNC(=O)c1ccccc1Br	-6.2%
125	COc1cc2cc(CN(C(=O)NC3CCCCC3)C3CCCC3)c(=O)[nH]c2cc1OC	u
126	Cc1cccc(OCC(O)CN2CC3(C)CC2CC(C)(C)C3)c1 (stereo not drawn)	5.0%
127	CCOC(=O)CSc1nc2cc(C(=O)NCc3ccco3)ccc2c(=O)n1-c1ccc(F)cc1	-7.7%
